High-throughput results as filed in PubChem BioAssay.
HIV TAR-Tat: HIV-1 TAR-Tat binding disruption; HIV-1 TAR RNA, Tat peptide displacement FRET; hits give high values; z-score (no concentration beside the values); 100,000 tested, 0.6% active; AID 1259389;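 note: score is relative to mean and SD of negative controls; some compounds called inactive have numbers as strong as hits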
CDC25B CDK2 inh: human CDC25B-CDK2/CyclinA binding inhibition | P30305+P24941 | HTRF CDC25B-CDK2/CyclinA binding, anti-His/anti-Flag; hits give high values | z-score (concentration not given with the values) | 94,000 tested, 0.72% active | AID 1259370;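 note: score is relative to mean and SD of negative controls; strong numbers were not always called active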
Active calls of the source: *; . = no result given.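 Rule for the calls: active = z-score from 3 up in half or more of its runs; inactive = the rest.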

Results follow in this order: HIV TAR-Tat	CDC25B CDK2 inh
O=C(O)c1c[nH]c2ccc(S(=O)(=O)N3CCCCC3c3cccnc3)cc2c1=O (configuration not stated)
    5.8	-1.7
Cc1cc(-c2ccsc2)n[nH]c1=O
    .	-0.7
CC(=O)Nc1ccc2nc3c(cc2c1)[nH]c1ccccc13
    2.9	1.4
COCC(C)NC(=O)C1=CC(c2ccco2)=NS(=O)(=O)N1C (configuration not stated)
    -2.3	-1.6
CN1C(C(=O)NCc2cccnc2)=CC(c2ccc3c(c2)OCO3)=NS1(=O)=O
    1.3	-1.9
COC(=O)CN1C(=O)CSc2ccc(S(=O)(=O)Nc3cc(OC)cc(OC)c3)cc21
    0.86	.
CCCCC12CN3CC(C)(CN(C1)C3c1ccco1)C2=O (configuration not stated)
    1.9	-1.4
Cc1ccc(Nc2nc(N3CCN(C)CC3)nc3c2cnn3C)c(C)c1
    1.6	.
Cc1c(NC(=O)Nc2ccc(Cl)cn2)sc2nc3n(c(=O)c12)CCC(C)CC3 (configuration not stated)
    0.04	0.73
O=C(O)C1Cc2c([nH]c3ccccc23)C(c2ccccc2Br)N1 (configuration not stated)
    -0.64	0.77

Rewritten with bars between the fields: four of the compounds above.
canonical_smiles | HIV TAR-Tat | CDC25B CDK2 inh
COCC(C)NC(=O)C1=CC(c2ccco2)=NS(=O)(=O)N1C (configuration not stated) | -2.3 | -1.6
CN1C(C(=O)NCc2cccnc2)=CC(c2ccc3c(c2)OCO3)=NS1(=O)=O | 1.3 | -1.9
COC(=O)CN1C(=O)CSc2ccc(S(=O)(=O)Nc3cc(OC)cc(OC)c3)cc21 | 0.86 | .
CCCCC12CN3CC(C)(CN(C1)C3c1ccco1)C2=O (configuration not stated) | 1.9 | -1.4

Later entries
Results follow in this order: HIV TAR-Tat	CDC25B CDK2 inh
O=c1oc(-c2ccco2)nc2c1cnn2-c1ccccc1
    -1.9	-0.91
Fc1ccc(Cn2cccc2C2=NC(CSCc3ccccc3)CO2)cc1 (configuration not stated)
    -0.64	.
COc1ccc(-c2noc(CSc3nnc(-c4ccncc4)n3CC(C)C)n2)cc1
    1.9	-2.2
Cc1ccccc1-n1c(CC2C(=O)N(C)c3ccc(Br)cc32)nc2ccccc2c1=O (configuration not stated)
    0.56	-0.57
[N-]=[N+]=Nc1ccc(C(=O)CSC[C@H](NC(=O)CC[C@H](N)C(=O)O)C(=O)NCC(=O)O)cc1
    .	-0.37
COc1ccccc1OCC(O)CO (configuration not stated)
    0.67	.
CCCC(NC(=O)Nc1cn(CC(C)C)c(=O)c2ccccc12)c1cccs1 (configuration not stated)
    0.96	.
N/C(=N\OC(=O)/C=C/c1csc([N+](=O)[O-])c1)c1c(F)cccc1F
    .	-5.1
Cn1c(SCc2ccc(F)cc2)nc(=O)c2c1NC(=O)CC2c1ccc2c(c1)OCCO2 (configuration not stated)
    1.5	-0.12
COc1ccc(Cl)cc1CNCCSc1nnnn1C
    0.58	0.48
CCC(NS(=O)(=O)c1ccc(F)cc1)C(=O)O (configuration not stated)
    2.1	-1.2
O=C1CCSc2ccc(S(=O)(=O)N3CCOc4ccc(Cl)cc43)cc2N1
    0.21	.
Cc1nn(-c2ccccc2)c(C)c1-c1nnc(C(F)(F)F)o1
    .	-0.73
Cc1nc(-c2ccc(NC(=O)C(C)(C)C)cc2)c(-c2ccccc2)o1
    .	-1.5
Cc1ccc(-c2noc3ncnc(Nc4ccc(F)cc4)c23)cc1
    1	.
Cc1cccc(N(C)Cc2cc(=O)n3oc(C)cc3n2)c1
    -5.8	.
Cc1ccc(S(=O)(=O)c2nnn3c2nc(N2CCN(C)CC2)c2sccc23)cc1
    1.4	.
O=C(Cn1ncn2c(cc3ccccc32)c1=O)N1CCN(c2ccccn2)CC1
    0.17	-0.88
O=C(Nc1ccc(-c2cnco2)cc1)c1ccc(F)cc1F
    .	-0.96
O=C(Nc1ccc2oc(-c3cccc4ccccc34)nc2c1)c1ccc([N+](=O)[O-])o1
    0.74	-2.5
CCC(C)(NC(=O)Cc1cccs1)C(=O)NC1CCCCC1 (configuration not stated)
    .	-0.99
CCCn1cc(C(CC(=O)O)C(=O)O)c2ccccc21 (configuration not stated)
    -1.9	-1.4
Cc1nc2n(CC(=O)N3CCCCC3)c3ccccc3n2n1
    .	-1.9
O=C1CC(c2ccc(F)cc2)c2cc3c(cc2N1)CCC3 (configuration not stated)
    .	-3.3
COC(=O)C1=C(C)NC(C)=C(C(=O)O[C@@H]2CCCN(Cc3ccccc3)C2)[C@@H]1c1cccc([N+](=O)[O-])c1
    1.5	.
CCCCCOC(=O)CSc1nnc(-c2ccc(C)cc2)o1
    0.48	0.6
Cc1nn(CC(=O)N2CCCC2)c(=O)c2cc3ccccc3n12
    1.2	-0.53
CCc1nnc2sc(NC(=O)C3CCCCC3)nn12
    -0.12	-0.49
CN(Cc1cnn(-c2ccccc2)c1)S(=O)(=O)c1cn(C)cn1
    1.6	.
Cc1ccc(S(=O)(=O)Nc2ccc(O)c(-c3nc4cc(C)ccc4o3)c2)cc1
    0.94	-0.26

Compounds shown so far that contain a nitro group on carbon:
Results follow in this order: HIV TAR-Tat	CDC25B CDK2 inh
N/C(=N\OC(=O)/C=C/c1csc([N+](=O)[O-])c1)c1c(F)cccc1F
    .	-5.1
O=C(Nc1ccc2oc(-c3cccc4ccccc34)nc2c1)c1ccc([N+](=O)[O-])o1
    0.74	-2.5
COC(=O)C1=C(C)NC(C)=C(C(=O)O[C@@H]2CCCN(Cc3ccccc3)C2)[C@@H]1c1cccc([N+](=O)[O-])c1
    1.5	.

Further results follow:
Results follow in this order: HIV TAR-Tat	CDC25B CDK2 inh
COc1ccccc1C1/C(=C(/O)c2ccc(C)cc2)C(=O)C(=O)N1CC(C)O (configuration not stated)
    0.34	0.49
Cc1cc(F)ccc1S(=O)(=O)Nc1ccc2oc(=O)sc2c1
    -0.12	-1.4
Cc1ccccc1C(=O)N1CCN(c2cc(=O)n3nc(-c4ccccc4)sc3n2)CC1
    -0.82	.
N#CCCN(Cc1cccnc1)CN1C(=O)c2ccccc2C1=O
    .	-1.3
Cc1oc2ncnc(N3CCOCC3)c2c1C(=O)Nc1ccc2c(c1)OCO2
    0.08	.
CCN(CC)C(=O)c1sc2ncn(CC(=O)N3CCCCC3C)c(=O)c2c1C (configuration not stated)
    .	-2.6
O=C(NCC(c1ccco1)S(=O)(=O)c1ccccc1)c1cccs1 (configuration not stated)
    1.7	.
COc1cccc(CSc2nc3ccncc3n2Cc2cccc(F)c2)c1
    0.78	-1.6
CC1=CC(C)(C)N(S(=O)(=O)c2ccc(Cl)cc2)c2ccccc21
    -1.7	-0.4
C=CCn1c(=O)c2ccccc2c2ccccc2c1=O
    .	-0.28
CCCNC(=O)C1CCCN1c1nn2c(=O)cc(C)nc2s1 (configuration not stated)
    2	-0.03
Cc1cc(NC(=O)COCc2cc(-c3ccco3)on2)no1
    0.48	.
Cn1cc(C(=O)N2CCOCC2)c(=O)c2cc(S(=O)(=O)N3CCOCC3)ccc21
    0.67	-1.6
Cn1c(SCC(=O)c2c[nH]c3ccccc23)nnc1-c1ccco1
    2	-0.88
Cc1ccc(-c2onc(C)c2C)cc1S(=O)(=O)N1CCCN(Cc2ccc(F)cc2)C1
    1	.
CCOC(=O)c1sc(N2CCCC2)nc1C
    -0.51	-0.32
N#Cc1c[nH]n2c(NC3CCCC3)c(-c3cccc(Cl)c3)nc12
    -1.4	-1.6
CC(=O)Nc1ccc(OCc2cc(=O)n3c4c(sc3n2)CCCC4)cc1
    0.58	-1.3
CC(C)CCNc1ncnc2scc(-c3ccc(Cl)cc3)c12
    -1.5	.
Cn1nccc1NC(=O)c1ccc(Cl)c(Cl)c1
    .	0.39

The closing two records of the section before come first, to join the parts:
Results follow in this order: HIV TAR-Tat	CDC25B CDK2 inh
CC(C)CCNc1ncnc2scc(-c3ccc(Cl)cc3)c12
    -1.5	.
Cn1nccc1NC(=O)c1ccc(Cl)c(Cl)c1
    .	0.39
COc1ccc(C)cc1S(=O)(=O)n1ccnc1
    1.4	-1.6
O=C(Nc1nn2c(-c3cccs3)nnc2s1)c1ccc(F)cc1
    1.6	0.22
COc1ccccc1NC(=S)Nc1ccccn1
    .	1.4
Cc1ncc(CO)c2c1Oc1nc(-c3ccc(Cl)cc3)nc(SCC(=O)N3CCCCC3)c1C2
    1.1	.
CN(CCNC(=O)c1noc2c1CCc1sccc1-2)C1CCCCC1
    0	.
COC(=O)c1ccc(CN2C(=O)C(=O)c3ccccc32)o1
    1	-0.35
COc1cccc2c1Oc1[nH]c(-c3ccc(C(=O)O)cc3)nc(=S)c1C2
    33*	2.7
CC1CN(c2ccc(Cl)nn2)CC(C)O1 (configuration not stated)
    1.1	-1.7
Cc1nnc(NCCCO)c2c1nnn2Cc1ccccc1Cl
    0.39	1.2
CC(C)CCNC(=O)c1cnn2c3c(cnc12)CC(C)CC3 (configuration not stated)
    -1.2	.
CCn1c(=O)c2cc(C(=O)N(Cc3ccco3)C3CCCCC3)sc2c2ccccc21
    .	-2.1
CC1=C(C(=O)N2CCN(Cc3ccc4c(c3)OCO4)CC2)C2(CCC(C)CC2)OC1=O (configuration not stated)
    0.79	0.52
Cc1cc(C)c(N=C(N)NN)cc1C
    .	-0.74
CCOC(=O)c1c(C)oc2nc(C)nc(NC3CCN(C(=O)OCC)CC3)c12
    1.6	.
CCOC(=O)c1sc(=S)n(-c2ccc(OC)cc2OC)c1N
    1.2	.
CC(=O)N1c2ccccc2CC1C(=O)Nc1ccc(Br)cc1F (configuration not stated)
    1.2	.
CC1CN=C(NS(=O)(=O)c2ccccc2)N1 (configuration not stated)
    .	-0.95
COc1cc(NC(=O)C2CCCN(S(=O)(=O)c3ccc4c(c3)oc(=O)n4C)C2)cc(OC)c1 (configuration not stated)
    1.5	-1.5
Cc1nc(-c2ccccc2)sc1C(=O)Nc1c(C)nc2ccccn2c1=O
    0.21	.
CCOc1ccccc1NS(=O)(=O)c1ccc(-n2cccn2)cc1
    1.2	.
CCCc1nc2nc(C)c(NS(=O)(=O)c3ccc(CC(C)C)cc3)c(=O)n2[nH]1
    2.1	-0.21
O=C(NCc1ccccn1)C1CCN(c2ncnc3c2sc2cccc(F)c23)CC1
    1	0.81
CC(C)CC(C(=O)Nc1ccc(F)cc1F)N1Cc2ccccc2C1=O (configuration not stated)
    0.36	.
COc1ccc(NC(=O)Nc2c(C)n(C)n(-c3ccccc3)c2=O)cc1OC
    -1.1	-1.2
CC1C(=O)N2CCCc3cc(S(=O)(=O)Nc4ccc(Oc5ccccc5)cc4)cc1c32 (configuration not stated)
    0.84	.
COc1ccc(CCNS(=O)(=O)c2ccc(OC)c(OC)c2)cc1OC
    -1	-1.4
O=C(O)CCC(=O)Nc1ccccc1
    .	-2.2
CCCN1CCC(N2CCCC(C(=O)N3CCCCCC3)C2)CC1 (configuration not stated)
    .	0.07
CC(C)(C)CN/C(C#N)=C(\N)C#N
    .	0.79
CCOC(=O)N1CCC(NS(=O)(=O)c2c(C)nc3scc(C)n3c2=O)CC1
    0.94	0.41
CCN1CCN(c2ncc(C(=O)N3CCCC3)c(C)n2)CC1
    2	.
CCOC(=O)C(C)Sc1ncnc2nc[nH]c12 (configuration not stated)
    .	1.2
CCCn1cc(S(=O)(=O)c2ccccc2)c(=O)c2cc(F)c(N3CCOCC3)cc21
    0.14	.
O=C(CCc1nnc2ccc(N3CCCC3)nn12)Nc1ccc(Cl)cn1
    0.91	.
Cc1ccc(-c2ncnn2-c2cccc(Cl)c2C)cc1
    2	-1.2
CCC1CCC(C(=O)NC(C(=O)NCCN2CCOCC2)C(C)C)CC1 (configuration not stated)
    .	0.21
COc1ccc(/C=N/OC(=O)c2cccs2)c(Cl)c1OC
    .	-1.5
COc1cc(OC)c(NC(=O)N2CCC(CN3CCCC3)CC2)cc1Cl
    -0.05	.
Nc1ccn(C2O[C@H](CO)[C@@H](O)C2(F)F)c(=O)n1 (some centres not stated)
    .	-1.3
Cc1noc2ncnc(N3CCC(C(=O)NCCCN4CCN(C5CCCCC5)CC4)CC3)c12
    2.5	.
CCOC(=O)c1c(C)c2c(=O)[nH]ncn2c1C
    0.79	-1.6
O=C1CC(c2ccco2)CC2=C1C(c1ccccc1)n1nc(C(F)(F)F)nc1N2 (configuration not stated)
    -0.44	-1.3
CCOC(=O)Cc1csc(N)n1
    0.56	-0.22
COc1cc(NS(=O)(=O)c2ccc(N)cc2)ncn1
    0.81	.
COc1ccc(C(=O)Nc2ccc(O)c(-c3nc4ccccc4s3)c2)cc1
    .	1.3
O=C(O)C1CCCN1S(=O)(=O)c1ccc(F)cc1 (configuration not stated)
    .	-2.2
Cc1cc(Br)c(O)c(C2NC(C(=O)O)Cc3c2[nH]c2ccccc32)c1 (configuration not stated)
    .	-1.2
O=c1[nH]c2c(s1)C(c1ccc(O)cc1)C1C3CCC(C3)C1S2 (configuration not stated)
    0.33	-1.2
O=C(CC1CCCCC1)Nc1ccc(SCc2nc3ccccc3[nH]c2=O)cc1
    -2.3	.
COc1cccc(C2CC(=O)NC3=C2C(=O)CC(c2cc(OC)ccc2OC)C3)c1 (configuration not stated)
    -0.52	0.19

(cont.)
Results follow in this order: HIV TAR-Tat	CDC25B CDK2 inh
CC(C)=N/N=C1\NC(=O)C(C)S1 (configuration not stated)
    .	0.2
Nc1ccc(N=Nc2ccccc2)c(N)n1
    1.1	.
COc1ccc(/C=C/c2nc(-c3ccccn3)no2)cc1OC
    1.9	-0.91
CN(CC(=O)Nc1cccc(C(F)(F)F)c1)S(=O)(=O)c1cccs1
    .	-1.6
COc1ccc(CCNc2ccccc2[N+](=O)[O-])cc1OC
    .	-1.4
CCOc1cc(C)c(S(=O)(=O)Nc2cccnc2)cc1C
    1.3	0.23
COc1ccccc1OCCSc1nc(-c2cccc(F)c2)nc2cc(=O)[nH]n12
    0.86	.
CCS(=O)(=O)c1nc(S(=O)(=O)c2ccc(Cl)cc2)c(N2CCN(CCO)CC2)s1
    -1.6	-0.69
O=C1c2ccccc2C(Nc2ccc(F)cc2)N1c1ccccn1 (configuration not stated)
    0.72	-0.54
